Screening data (PubChem BioAssay)
eIF4H FP inh – inhibitors of RNA binding by human eIF4H. Q15056. eIF4H fluorescence polarization binding assay. inhibition, % at 35 µM. 290,000 tested, 0.94% active;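 active = 50% or more with normal probe brightness, or confirmed in later tests; inconclusive = above 50% with abnormal brightness, or retests that disagree; inactive = below 50% or failed in later tests; about a fifth of its hits are not listed in these tables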;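 also: calls also rest on retests at 20 µM and on dose response follow-up; 0% = protein and probe with vehicle and 100% = probe without protein; strong numbers were not always called active; many hits fall short of the cut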
Rce1 inh – blocks yeast Ras-converting enzyme | Q03530 | yeast membranes, quenched prenylated peptide cleavage fluorescence | calls only | 290,000 tested, 0.27% active | AID 2563;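 active = fall in fluorescence gain of 50% or more versus controls, with final raw signal at or below 3038400; inconclusive = same 50% fall but final raw signal above 3038400; inactive = fall in fluorescence gain under 50%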;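 also: plate controls were neutral control wells for no effect and wells lacking membranes for full effect; tested at 10 µM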
Target sequence (Q03530 whole entry, looked up): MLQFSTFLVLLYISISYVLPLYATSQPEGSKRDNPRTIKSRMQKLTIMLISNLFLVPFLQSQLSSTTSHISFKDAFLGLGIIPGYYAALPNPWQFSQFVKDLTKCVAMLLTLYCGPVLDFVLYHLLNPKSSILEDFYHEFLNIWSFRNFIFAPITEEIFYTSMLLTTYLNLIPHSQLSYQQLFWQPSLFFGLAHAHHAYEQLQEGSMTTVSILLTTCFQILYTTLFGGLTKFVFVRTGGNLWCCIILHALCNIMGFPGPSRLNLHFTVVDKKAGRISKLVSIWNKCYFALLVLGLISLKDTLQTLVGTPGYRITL
HIV Env fusion – inhibitors of HIV Env-mediated cell fusion; AID 651610; HeLa-JRFL Env/CEM21 cell fusion, luciferase; inhibition, % at 12.3 µM; 360,000 tested, 1.1% active;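 active = mean replicate inhibition score of at least 50 and every replicate individually at or above 50; inconclusive = only one of the two criteria met; inactive = mean below 50 and not all replicates reaching 50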;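 also: 0% = plate neutral controls and 100% = maraviroc near 300 nM; one replicate is shown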
PABP polyA inh – blocks human PABP binding to poly(A) RNA; P11940; fluorescence polarization; inhibition, % at 35 µM; 290,000 tested, 1% active; AID 2014;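 active = 50% or more with normal probe brightness, or confirmed in later tests; inconclusive = above 50% with abnormal brightness, or retests that disagree; inactive = below 50% or failed in later tests; about a fifth of its hits are not listed in these tables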;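 also: calls also rest on retests at 20 µM and on dose response follow-up; controls were probe without protein and protein plus probe with vehicle; some compounds called inactive have numbers as strong as hits; many hits fall short of the cut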
Yeast UUG start – yeast start codon fidelity modulation; 350,000 tested, 0.13% active; activity score, % at 18.7 µM; S. cerevisiae UUG-firefly luciferase reporter, luminescence/redox ratio;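 active = replicate mean at a twofold rise or more, about +100% in these data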;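 also: firefly luciferase made from a UUG start codon reports start codon fidelity; reporter light over untreated wells divided by growth signal over untreated wells; some hits fall short of that in this replicate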
MT1-MMP act inh – inhibitors of human MT1-MMP activation; P50281; HT1080 RFP-PRO-GFP cells, GFP/RFP ratio fluorescence, overnight; percent of plate control window, DMSO zero; GFP/RFP ratio change, % at 20 µM; 360,000 tested, 0.061% active;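 active = GFP/RFP ratio change of at least 30% with cell ATP level not reduced by more than half and red fluorescence within 50% of control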; also: strong numbers were not always called active
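Assay system: HT1080 RFP-PRO-GFP cells | Dosing: 20 µM single dose, 1% DMSO | Incubation: Cells overnight before dosing, compound overnight, 37 °C, 5% CO2 | Evaluation: GFP/RFP fluorescence ratio | Control set: DMSO-only wells and HT1080 RFP-L50D-GFP cell wells as references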
CSC inhib – cancer stem cell inhibition; cancer stem cell-like cells viability, luminescence; inhibition, % at 7.5 µM; 300,000 tested, 1.1% active;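 active = mean at 75% or more and at least half the replicates too; inconclusive = mean and replicates disagree; tested in HMLE shEcad cells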;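 also: 0% = median of negative and 100% = median of positive control wells; the first replicate is given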
eIF4H FP inh retest – further read-out of eIF4H FP inh, marked with its call; inhibition, %; compound at 20 µM; confirmation average;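 mean of two retest wells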
PABP polyA inh retest – second read-out of PABP polyA inh, no call of its own (marks repeat the call); inhibition, %; compound at 20 µM; confirmation repeats;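 mean of two retest wells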
MT1-MMP act inh RFP – further read-out of MT1-MMP act inh, marked with its call; RFP signal change, %; measured here: RFP expression control read;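 0 = vehicle wells; hits needed this value within 50% of zero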
* marks the source's active call; other numbers are inactive results; i = inactive; ? = inconclusive; nt = not tested or not shown.

SMILES | eIF4H FP inh | Rce1 inh | HIV Env fusion | PABP polyA inh | Yeast UUG start | MT1-MMP act inh | MT1-MMP act inh RFP | CSC inhib | others
Cc1ccc(S(=O)(=O)Nc2ccc(C(=O)NCc3ccccn3)cc2)cc1 | -1 | i | 2 | -9 | -1 | -4 | 2 | -19
O=C(Nc1ccccc1)N1CCCN(c2c(Cl)cncc2Cl)CC1 | -4 | i | 20 | -5 | nt | 0 | -2 | -2
c1ccc(-[n+]2nc(Nc3cccc4ccccc34)sc2-c2c3ccccc3cc3ccccc23)cc1 | nt | nt | nt | nt | -18 | 14 | -28 | 6
CC(=O)c1ccc(OCCCC(=O)Nc2ccc3c(c2)OCCO3)cc1 | nt | nt | nt | nt | -10 | 4 | 1 | -16
O=C(c1c(F)cccc1F)N1CCN(c2ccccc2F)CC1 | -5 | i | nt | 0 | 6 | -2 | 3 | -6
O=C(O)COc1ccccc1/C=N/NC(=O)c1ccc(F)cc1 | 5 | i | -9 | 6 | -11 | 5 | 8 | 3
CC(Sc1nncs1)C(=O)Nc1ccc2c(c1)OCO2 (stereo not drawn) | 16 | i | 7 | 14 | nt | 3 | 1 | -7
CCOC(=O)Cn1cnc2sc3c(c2c1=O)CCC3 | 50 | i | -9 | 19 | nt | -3 | 3 | -6 | eIF4H FP inh retest=48;PABP polyA inh retest=19
COc1ccccc1C(=O)Nc1ccnn1C1CCN(Cc2ccc3nonc3c2)CC1 | 0 | i | 2 | -9 | nt | -3 | -2 | -2
OCCCNC(=S)Nc1ccc2nc(-c3ccccn3)c(-c3ccccn3)nc2c1 | 12 | i | -3 | 38 | 11 | -31 | 3 | -2
[O-][N+]12CCN(CC1)c1ccccc12 | -3 | i | nt | -8 | -15 | 0 | 5 | 5
Cn1cnc2c(cnn2C)c1=O | nt | nt | 8 | nt | -26 | 1 | 6 | nt
CCN(c1ccccc1)S(=O)(=O)c1ccc(OC)c(NC(=O)c2ccc(=O)[nH]c2)c1 | nt | nt | 0 | nt | -5 | 4 | 2 | -7
O=C(N[C@@H](Cc1ccccc1)C(=O)N1CCN(S(=O)(=O)c2ccc(F)cc2)CC1)c1ccco1 | nt | nt | -22 | nt | -16 | 1 | 0 | nt
OC(COc1ccccc1)CN1CCCC1 (stereo not drawn) | 2 | i | -8 | 15 | nt | 0 | 4 | 0
NC(=O)NC(CC(=O)NCCc1ccc(S(N)(=O)=O)cc1)c1ccccc1Cl (stereo not drawn) | -8 | i | 2 | -4 | -25 | 3 | 6 | 0
COc1ccc(OC)c(S(=O)(=O)Nc2cc3c4c(c2)CCC(=O)N4CCC3)c1 | nt | i | -9 | nt | 1 | 1 | 1 | nt
CCOC(=O)C(C)Oc1cccc2c(=O)n(CC(=O)NCCc3ccccc3)ccc12 (stereo not drawn) | -8 | i | 1 | -4 | nt | 6 | 5 | 12
O=C1c2cccc3c([N+](=O)[O-])ccc(c23)C(=O)N1O | ? | i | 1 | ? | 2 | -105 | 9 | 29
O=C(NCCCN1CCCC1)C1CCC(=O)N1C1CCCCC1 (stereo not drawn) | 1 | i | nt | 1 | -8 | 4 | 6 | -3
Cc1ccc2c3c([nH]c2c1C)-c1nonc1CC3 | 0 | i | -413 | 0 | -8 | -10 | -7 | nt
O=c1cc(-c2ccc(O)c(O)c2)oc2cc(O)cc(O)c12 | -3 | i | -53 | 10 | -12 | -116 | -14 | -4
Cc1ccc(CCNC(=O)CNC(=S)N(Cc2ccccc2)Cc2cccnc2)cc1 | -30 | i | 13 | ? | nt | -5 | 1 | -14
CCCS(=O)(=O)N1CCCC(C(=O)NCCCN(C)c2ccccc2)C1 (stereo not drawn) | -12 | i | nt | -2 | -2 | 4 | -1 | -9
O=C(CSc1nnc(CNC(=O)c2cccs2)o1)Nc1ccccc1 | -18 | i | 6 | 2 | nt | 4 | 5 | 2
SMILES | eIF4H FP inh | Rce1 inh | HIV Env fusion | PABP polyA inh | Yeast UUG start | MT1-MMP act inh | MT1-MMP act inh RFP | CSC inhib | others
COc1ccc(-c2csc(Nc3ccc(S(=O)(=O)Nc4cc(C)on4)cc3)n2)cc1C | -4 | i | -7 | 10 | nt | 1 | -2 | 17
O=C(N/N=C/C1=Cc2ccccc2OC1)c1ccncc1 | -11 | i | 0 | -1 | -20 | 1 | 1 | 25
O=C(CN1C(=O)CCSc2ccccc21)NC1CCCCC1 | -4 | i | 3 | 3 | -19 | 2 | 6 | -14
C[N+]1(CC(=O)OCCCc2ccccc2)CCCCC1 | 1 | i | -11 | 77* | 3 | 3 | 8 | -12
O=c1c(-c2nc3ccccc3o2)c2oc3ccccc3n2c2ccccc12 | -1 | i | nt | -24 | nt | nt | nt | nt
O=C(OCC(=O)c1c[nH]c2ccccc12)c1ccc(OC(F)F)cc1 | nt | nt | -12 | nt | -17 | 1 | 5 | nt
COc1ccccc1N(Cc1cc(=O)[nH]c2ccccc12)C(=O)C(C)C | -11 | i | 5 | -3 | -2 | -9 | 1 | -13
Cc1nc(C)n(C(C)CNS(=O)(=O)c2ccc(C)c(C)c2)n1 (stereo not drawn) | -2 | i | 1 | -2 | -19 | -3 | -1 | 9
Cc1cccc(N(Cc2ccccc2)C(=O)c2ccc(F)c(S(=O)(=O)N3CCOCC3)c2)c1 | nt | i | nt | nt | -6 | -2 | -4 | -8
O=C(NC(=S)Nc1ncc(Br)cc1Br)c1cncc(Br)c1 | 0 | i | -72 | 11 | -17 | -2 | -4 | 27
CCCN(CCC)S(=O)(=O)c1ccc2c(c1)CCCN2C(C)=O | -4 | i | nt | -2 | -8 | 7 | 1 | -9
COc1ccc(CNC(=O)c2ccc(CS(=O)Cc3cccc(Cl)c3)o2)cc1 (stereo not drawn) | -8 | i | 5 | 2 | -2 | 1 | 0 | -23
CC(C)CCNC(=O)c1c(CSc2ccc(Cl)cc2)noc1C(=O)NCc1ccccc1 | nt | i | -8 | nt | -20 | 0 | 0 | 25
O=S(=O)(c1ccc(S(=O)(=O)N(Cc2ccc(F)cc2)C2CCCC2)cc1)N1CCCC1 | 5 | i | nt | -5 | -12 | -6 | -8 | nt
O=C(NN1CCOCC1)c1ccc(Br)s1 | -1 | i | 8 | 11 | -6 | 4 | 0 | 4
CC(=O)Nc1ccc(OCCOc2ccc(/C=C3/C(=N)N4C=CSC4=NC3=O)cc2)cc1 | -7 | nt | -20 | 11 | -17 | 3 | 3 | -12
CCCN(CC(=O)Nc1ccccc1C)C(=O)c1ccc(N2CCCC2=O)cc1 | nt | nt | 5 | nt | 2 | 0 | 3 | -9
O=C(NNC(=S)Nc1ccccc1C(F)(F)F)C1CC1 | 0 | i | -4 | -2 | -15 | 4 | 3 | -7
CC(NC(=O)C1CCCC1)c1ccc(Br)cc1 (stereo not drawn) | -12 | i | -9 | 6 | 1 | 2 | 2 | -10
Cc1nc2sc(C(c3ccc(Cl)cc3)N3CCOCC3)c(O)n2n1 (stereo not drawn) | -9 | i | nt | 2 | -12 | 4 | 1 | -2
CCOc1ccc(C(=O)NCC(=O)NCC(c2ccccc2OC)N2CCCC2)cc1 (stereo not drawn) | nt | i | nt | nt | -20 | -4 | 2 | 3
O=C(O)CC(Cc1ccccc1)C(=O)NCC12CC3CC(CC(C3)C1)C2 (stereo not drawn) | -5 | i | 3 | 32 | nt | 6 | 2 | -8
CC1CCCC(C)N1C(=O)COC(=O)CN1C(=O)c2ccccc2C1=O (stereo not drawn) | nt | nt | nt | nt | -17 | 2 | 1 | 21
Cc1cc(NC(=O)CCC(=O)N(c2ccccc2)C(C(=O)NC(C)(C)C)c2ccccc2Cl)no1 (stereo not drawn) | 4 | i | 10 | -2 | 9 | 0 | -1 | -5
CC(C)(C)C1CCCCC1NC(=O)c1ccncc1 (stereo not drawn) | -2 | i | 1 | -4 | -12 | -3 | -1 | nt
SMILES | eIF4H FP inh | Rce1 inh | HIV Env fusion | PABP polyA inh | Yeast UUG start | MT1-MMP act inh | MT1-MMP act inh RFP | CSC inhib | others
NC(=O)CSc1nnc(C2CC2)n1-c1ccccc1 | 1 | i | nt | 10 | nt | 1 | 5 | -9
COc1ccc2[nH]c(=O)c(CN(C(=O)C(C)C)c3ccccc3OC)cc2c1 | -3 | i | 25 | -2 | 8 | 1 | -3 | -23
CN(C)S(=O)(=O)N1CCN(C(=O)N2CCCCC2)CC1 | -4 | i | nt | -2 | -17 | 1 | 9 | -5
CCOC(=O)C1Cc2c([nH]c3ccccc23)CN1 (stereo not drawn) | 11 | i | -18 | 6 | -18 | 3 | 9 | -9
Cc1ccc(Nc2nc(-c3ccncc3)nc3ccccc23)cc1 | -12 | i | 35 | 5 | -18 | 3 | 2 | 13
Cc1cc(C(=O)N/N=C2\CCCC(=O)C2)c2ccccc2n1 | 58 | i | nt | 6 | -1 | 1 | 1 | nt | eIF4H FP inh retest=1;PABP polyA inh retest=-5
Cc1ccc(CNc2nc(N)c([N+](=O)[O-])c(NCc3ccccc3)n2)cc1 | 5 | i | 5 | -6 | -16 | 1 | -2 | -6
O=C(Cc1ccccc1)N[C@H](c1ccccc1)P(=O)(O)CO | -1 | i | nt | 28 | -9 | -4 | -4 | 7
O=C(/C=C/c1ccc([N+](=O)[O-])cc1)NCCOc1ccc(F)cc1 | -5 | nt | 23 | -1 | nt | -3 | -1 | -5
CC(C)(C)c1cc(C(=O)N/N=C/c2ccccn2)n[nH]1 | -4 | i | -6 | -5 | -1 | -2 | 0 | 4
CC(=O)c1ccc(NC(=S)N2CCC(O)CC2)cc1 | -14 | i | -19 | -4 | -5 | 13 | -1 | -13
COC(=O)c1ccc(CSc2nnc(CNC(=O)c3cccs3)o2)o1 | -3 | i | -9 | 11 | -13 | -3 | 0 | -3
Cc1ccc(C(=O)NNC(=O)C2CCN(S(=O)(=O)c3ccc(Cl)cc3)CC2)cc1 | 3 | i | 7 | 0 | -6 | 6 | 0 | -14
Oc1cccc(/C=N\Nc2nncc(-c3ccccc3)n2)c1 | -7 | i | -34 | 9 | nt | 1 | -1 | 6
Cc1ccc(C)c(NNC(=O)C(=O)NNc2cc(C)ccc2C)c1 | -6 | i | 17 | 3 | 4 | 1 | 2 | 12
Cc1ccc2c(c1)N(CCC(=O)NC1CCCCC1)C(=O)CO2 | 21 | i | 6 | 5 | -8 | 1 | 0 | 8
CC(/C=C/c1ccccc1)=N\NC(=O)CNC(=O)c1ccccc1Cl | 2 | i | 14 | ? | nt | 1 | 2 | 2
COc1ccc(OC)c(C2=NS(=O)(=O)N(C)C(C(=O)Nc3ccc(C(C)=O)cc3)=C2)c1 | -18 | i | 8 | -7 | 1 | 0 | -5 | -8
CCOC(=O)c1cccc(COC(=O)c2cccc(-c3nnc(-c4ccccc4)o3)c2)c1 | -6 | i | -1 | -10 | nt | 3 | -3 | 9
CN1CCN(CCCNC(=O)Cn2nc(-c3ccccc3)ccc2=O)CC1 | -1 | i | 5 | 0 | -22 | 2 | -2 | -10
CC1(C)CC(=O)C=C(Nc2ccccc2NC(=O)c2cnccn2)C1 | -2 | i | nt | 1 | -13 | 5 | 11 | -1
COCC(C)NC(=O)NC(=O)c1ccc(Cl)cc1 (stereo not drawn) | 11 | i | nt | 21 | -14 | 1 | 2 | -2

Some of the compounds tested, so the mix of outcomes need not match the whole.
